Screens as filed in PubChem BioAssay.
UCH37 inh: blocks the human deubiquitinase UCH37. Q9Y5K5. purified proteasome/UCH37, Ub-AMC cleavage fluorescence. inhibition, % (no concentration beside the values). 330,000 tested, 0.33% active;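 active = mean of two replicates above 20%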;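 also: 0% = compound-free wells with enzyme and 100% = wells lacking proteasome; stock transfer was 100 nL into about 20 µL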
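Test system – human UCH37 enzyme supplied as purified proteasome complex · Incubation – 30 min preincubation with enzyme, 25 min cleavage at room temperature · Detection – AMC fluorescence from Ub-AMC cleavage, excitation 355 nm, emission 460 nm · Benchmarks – no-proteasome wells (full inhibition) and compound-free wells (no inhibition)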
FGF22 binding: shifts melting point of recombinant human FGF22 | recombinant FGF22 thermal shift, SYPRO orange fluorescence; percent of sucrose octasulfate shift, DMSO zero | calls only at 9.99 µM | 340,000 tested, 1.5% active | AID 651658;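 active = melting point raised past a set limit in the mean and every replicate; three in four hits are not shown here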
Target sequence (Q9HCT0 whole entry, looked up): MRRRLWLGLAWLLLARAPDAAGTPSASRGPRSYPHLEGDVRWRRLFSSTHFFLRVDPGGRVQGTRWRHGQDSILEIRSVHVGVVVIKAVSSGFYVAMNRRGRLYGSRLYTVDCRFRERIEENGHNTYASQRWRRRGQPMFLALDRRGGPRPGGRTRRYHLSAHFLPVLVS
HNF4A DNA FP: change in binding of human HNF4 alpha to DNA. P41235. HNF4a-FITC DNA binding, fluorescence polarization, 1 h. activity change, % at 10 µM. 360,000 tested, 0.3% active. AID 1224865; in the data active = activity change above about 30%, passing the limit was not always enough;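 also: controls were the assay level and a saturating level of protein; the project sought stronger binding though the title names inhibitors; some compounds called inactive have numbers as strong as hits; positive values seem to mean higher polarization but the record does not say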
Target sequence (P41235 whole entry, looked up): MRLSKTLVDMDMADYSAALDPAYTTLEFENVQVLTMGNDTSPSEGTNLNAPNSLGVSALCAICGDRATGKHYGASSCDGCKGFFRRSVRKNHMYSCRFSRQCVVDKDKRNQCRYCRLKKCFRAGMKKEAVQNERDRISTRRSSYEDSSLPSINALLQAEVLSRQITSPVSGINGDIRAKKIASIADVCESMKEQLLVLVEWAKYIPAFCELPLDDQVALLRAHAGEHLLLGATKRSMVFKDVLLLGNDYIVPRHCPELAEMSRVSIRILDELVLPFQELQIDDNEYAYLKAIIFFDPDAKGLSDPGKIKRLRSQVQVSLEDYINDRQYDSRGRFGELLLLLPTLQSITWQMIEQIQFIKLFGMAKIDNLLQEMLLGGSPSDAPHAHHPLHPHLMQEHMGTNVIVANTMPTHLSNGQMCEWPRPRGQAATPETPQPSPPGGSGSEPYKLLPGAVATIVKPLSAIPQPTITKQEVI
Ecoli growth: blocks Escherichia coli growth; OD600, 23 h; stronger effect = lower value; OD600 absorbance (concentration not given with the values); 330,000 tested, 0.21% active; AID 1053175;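 active = OD600 absorbance below the run mean of sample wells minus 3.6 SD, in any replicate, cut at about 0.56 in these data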;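 also: stock transfer was 300 nL into about 60 µL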
Beta2AR agonist: activates human beta-2 adrenergic receptor causing internalization. P07550. Am2.2-beta2AR cells, FAP receptor internalization, flow cytometry; reference of the scale not given here. response, % (no concentration beside the values). 340,000 tested, 0.43% active. AID 504454;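 active = response above a set limit, near 3 SD of response in nonfluorescent compounds, cut at about 42% in these data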;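 also: stock transfer was 100 nL into about 11 µL; a reference agonist was the positive control; negative values mostly stem from fluorescent compounds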
ALR H2O2 inh: blocks human ALR sulfhydryl oxidase activity; purified ALR, DTT oxidation, H2O2 HRP-luminol luminescence; inhibition, % (no concentration beside the values); 290,000 tested, 3.8% active; AID 485317;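 active = mean and each replicate at 75% or more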;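 also: stock transfer was 7.5 nL into about 7.5 µL; 0% = neutral wells and 100% = wells with inactivated enzyme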
Target sequence (P55789 whole entry, looked up): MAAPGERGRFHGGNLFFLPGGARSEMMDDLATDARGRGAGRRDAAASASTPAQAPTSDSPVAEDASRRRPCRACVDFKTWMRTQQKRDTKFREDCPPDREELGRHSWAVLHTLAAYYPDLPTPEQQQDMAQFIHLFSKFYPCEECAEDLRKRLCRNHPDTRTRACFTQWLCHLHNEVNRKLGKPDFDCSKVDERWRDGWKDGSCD
rRNA inh HTS: selective bacterial rRNA inhibition in E. coli; AID 720706; E. coli WT GFP vs humanized-ribosome RFP mutants, fluorescence, 24 h; stronger effect = lower value; DMSO median 0, no signal -100; 350,000 tested, 1.6% active; GFP signal change (wild-type ribosome), % (no concentration beside the values);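 active = significant combined selectivity score with lowered wild-type GFP, culture density cut under 30%, mutant RFP and density less affected; inactive = any of these conditions unmet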; also: one replicate is shown; some compounds called inactive have numbers as strong as hits
rRNA inh HTS OD600: also measured in rRNA inh HTS; calls as there; OD600 change, %; measured here: OD600 growth;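 optical density of the mix in the first replicate; 0 = DMSO median and -100 = no signal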
rRNA inh HTS RFP: also measured in rRNA inh HTS; calls as there; RFP signal change, %; measured here: RFP humanized mutant strains;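 first replicate; 0 = DMSO median and -100 = no signal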
Starred values were filed as active, the others as inactive; i = inactive; · = not tested or not shown; & = joins results of further samples. An excerpt; rates above refer to the full screens.

SMILES | UCH37 inh | FGF22 binding | HNF4A DNA FP | Ecoli growth | Beta2AR agonist | ALR H2O2 inh | rRNA inh HTS | rRNA inh HTS OD600 | rRNA inh HTS RFP
NCCc1cc(O)c(O)cc1O | · | i | -13&-13 | · | 4&-2 | · | · | · | ·
CC12CN3CN(C1)CC(C)(C3)C2=NO | 1.7 | · | -1.5 | 0.68 | 0 | -7 | · | · | ·
CS(=O)(=O)c1ccc(C2=C(CNC(=O)c3cccs3)[C@H]3CC[C@@H](C2)N3CCOc2ccccc2)cc1 | · | i | -3.5 | · | · | · | 3 | 16 | -1.2
O=c1[nH]c(=O)n(C2CCCCC2)c(O)c1/C=N/N1CCCCC1c1cccnc1 (centres undefined) | -1.0 | i | 2.5 | 0.69 | -4 | · | 6 | 2 | -1.9
CC1=NOC2(C)Nc3ncnn3C(c3ccccc3)C12 (centres undefined) | -0.5 | · | -1.4 | 0.72 | 4 | -6 | · | · | ·
CNCCc1c(C)n[nH]c1C | 1.0 | · | -2.2 | 0.64 | 3 | -4 | · | · | ·
O=C(O)c1nn(Cc2ccc(Cl)cc2)c2ccccc12 | · | i | -3.1 | · | · | · | -26 | -34 | -15
CCC(=O)c1ccc(OCC(=O)N2CCN(CC(=O)Nc3ccccc3C(F)(F)F)CC2)cc1 | 1.6 | i | -4.2 | 0.67 | -15 | -3 | -14 | -23 | 4.5
O=C(N/N=C/c1c(O)n(-c2ccccc2)c(=O)[nH]c1=O)c1ccncc1 | -28 | · | 7.4 | 0.67 | 11 | 3 | · | · | ·
COc1ccc2[nH]c(C)c(CCNCc3cn(C)c4ccccc34)c2c1 | 6.4 | i | 4.2 | 0.67 | 29 | 1 | 12 | 6 | 4.8
Cc1ccc(CN(Cc2ccccc2)C(=S)NCC(=O)N2CCC3(CC2)OCCO3)o1 | 4.7 | i | -2.4 | 0.71 | -6 | · | -21 | -17 | -2.7
CCCCC1(CCO)C(=O)NC(=S)NC1=O | 2.8 | i | -0.5 | 0.72 | -2 | · | 5 | 10 | -1.5
N#Cc1ccc(N2CCNCC2)c(F)c1 | -2.5 | · | -2.9 | 0.72 | 4 | -15 | · | · | ·
Cc1cc(=O)n(-c2ccccc2)n1-c1ccccc1 | -0.5 | · | -1.8 | 0.66 | -4 | -3 | · | · | ·
COC(=O)C1=C(c2c(C)noc2C)C[C@@H]2CC[C@H]1N2C(=O)NCC1CC1 | 2.0 | i | -1.1 | · | 13 | -5 | 4 | 7 | 8.0
COC(=O)C1=C(c2c(C)noc2C)C[C@@H]2CC[C@H]1N2C(=O)N1CCCC1 | 1.2 | i | -2.7 | · | 10 | 2 | -2 | 0 | -8.4
CCOC(=O)CC(NC(=O)C(Cc1ccc(N(CCCl)CCCl)cc1)NC(C)=O)C(=O)OCC (centres undefined) | -1.3 | i | 0.0 | 0.68 | 16 | 24 | 21 | 13 | -0.2
CC1CCN(C(=O)C(C)Cl)CC1 (centres undefined) | 4.8 | i | 0.3 | 0.71 | 1 | -1 | 29 | 14 | 0.1
Cn1c(=O)cc(OCC(=O)N2CCN(Cc3ccc4c(c3)OCO4)CC2)c2ccccc21 | 3.0 | · | 3.0 | 0.66 | -1 | 2 | · | · | ·
N#Cc1c(/N=C/C2C(=O)NC(=S)NC2=O)sc2c1CCCC2 | · | i | 4.7 | · | -8 | 93* | 17 | 17 | 8.1
O=C1NC(=O)N(c2ccccc2)C(=O)/C1=C\c1ccccc1[N+](=O)[O-] | 6.3 | i | -0.3 | 0.65 | -2 | 62 | 3 | 9 | 2.4
CCCCCn1c(=O)c(C(=O)Nc2ccccn2)c(O)c2ccccc21 | -0.6 | i | -0.4 | 0.71 | -3 | -6 | 7 | 6 | 1.1
Cc1ccc(N(C)C(=O)Oc2cccc3cccnc23)cc1 | 2.7 | · | 1.3 | 0.7 | -2 | -9 | · | · | ·
C1CN(P2(N3CC3)=NP(N3CC3)(N3CC3)=NP(N3CC3)(N3CC3)=N2)CCO1 (centres undefined) | · | i | 4.7 | · | · | · | 3 | 13 | -4.5
N#Cc1ccc(NC(=S)N2Cc3ccccc3-n3nncc3C2)cc1 | · | i | 0.6 | · | · | · | -12 | -6 | 1.9
O=C(Nc1ccccc1)N1Cc2ccccc2-n2nncc2C1 | · | i | 1.6 | · | -3 | · | -5 | -2 | 0.6
CN1CCC(N(C)c2ccc(C(N)=O)cc2[N+](=O)[O-])CC1 | 5.3 | i | -2.8 | 0.7 | -5 | 1 | 1 | 6 | 2.4
NCC(O)c1cc(O)c(O)cc1F (centres undefined) | 0.7 | i | -3.5 | 0.71 | -5 | 83* | · | · | ·
Cc1cc(OCC(=O)NCc2cccnc2)c2c3c(c(=O)oc2c1)CCCC3 | -89 | i | -1.7 | 0.68 | 14 | 1 | -2 | 0 | -3.6
COc1ccccc1N1CCN(Cc2ccc(F)cc2)CC1 | 1.7 | · | 2.6 | 0.66 | 1 | 55 | · | · | ·
COC1=C[C@@H]2[C@@H]3Cc4ccc(OC)c(O)c4[C@]2(CCN3C)CC1=O | · | i | 2.9 | · | -5 | · | · | · | ·
CN1CCC(O)(c2ccccc2)C2CCCC21 (centres undefined) | 0.8 | i | -0.4 | 0.75 | 1 | -4 | 15 | 13 | -6.1
Cc1nc2ccccc2c(=O)n1-c1cccc([N+](=O)[O-])c1 | 0.8 | i | -0.1 | 0.68 | 1 | -6 | 10 | 8 | -1.7
CCCNC(=O)N1CCC2(CC1)OCCO2 | 14 | i | -0.9 | 0.74 | -2 | -7 | 11 | 14 | -0.7
COc1cc2c(c(OC)c1OC)-c1ccc(O)cc1[C@@H](NC(C)=O)CC2 | -0.2 | i | 1.8 | · | 28 | -8 | 11 | 6 | -8.0
COc1cc(CC2(CCc3ccncc3)C(=O)N(C)C(=O)N(C)C2=O)cc(OC)c1OC | 1.3 | i | -3.5 | 0.67 | 5 | -3 | 6 | 2 | -0.2
CCN(CC)c1ccc(N=Cc2c(O)n(Cc3ccccc3)c(=O)[nH]c2=O)cc1 | -6.7&-4.9 | · | 13&10 | 0.73&0.72 | 1&-191 | -8 | · | · | ·
CCCC1C(C#N)=C(N)Oc2c1c(=O)oc1ccccc21 (centres undefined) | -1.2 | · | 0.8 | 0.7 | 0 | -1 | · | · | ·
c1ccc(CCN2CCC(N3CCN(c4ccccc4)CC3)CC2)cc1 | 4.0 | · | -0.8 | 0.71 | 2 | 99* | · | · | ·
CC(C)(C)N1CC(C(=O)c2ccccc2)C1c1ccccc1 (centres undefined) | · | i | 5.0 | · | -12 | · | 0 | -4 | 2.7
COc1cc(/C=C/C(=O)c2c(O)n(CCc3ccccc3)c(=O)[nH]c2=O)ccc1O | -4.6 | i | 3.2 | 0.69 | 7 | 97* | · | · | ·
COc1ccccc1CN1CCNCC1 | · | i | 6.0 | · | · | · | 9 | 17 | -0.1
CC(C)c1ccccc1OCC(=O)N1CCCN(C)CC1 | 0.0 | i | 0.4 | 0.71 | 8 | -12 | 4 | 3 | 0.5
O=C(NC(Cc1cnc[nH]1)C(=O)O)c1ccccc1 (centres undefined) | 0.5 | i | 2.4 | 0.68 | 3 | -3 | 8 | 9 | -0.3
CNC(=O)O/N=C(\C)Cc1nnn(-c2cc(C)on2)n1 | · | i | -0.9 | · | -3 | 2 | 13 | -1 | 1.5
CCN(CC)P(=O)(Oc1cccc(C)c1)N(CC)CC | 2.5 | · | -2.5 | 0.72 | 1 | 3 | · | · | ·
CC(C)CCn1c(=O)c(C(=O)NCc2ccco2)c(O)c2ccccc21 | 0.3 | i | 4.1 | 0.71 | -8 | 5 | 33 | 16 | 5.6
Cc1cccc(C)c1OC(=O)Cc1ccccc1 | 4.4 | i | 6.1 | 0.7 | 13 | -18 | 14 | 5 | -1.8
COc1ccc(C(C)=O)cc1CC(C(=O)c1ccc(C)c(C)c1)N(C)C (centres undefined) | 1.9 | · | 3.0 | 0.67 | 2 | 1 | · | · | ·
COc1ccccc1NC(=O)c1cn(CCC#N)nc1-c1cccc(Cl)c1 | 2.1 | i | 0.4 | 0.67 | 0 | -9 | 4 | 5 | -2.0
CC(Cc1ccsc1)NCc1cn[nH]c1-c1ccc(F)cc1F (centres undefined) | 1.2 | i | 1.9 | 0.66 | -3 | · | 9 | -8 | -2.7
FC(F)(F)c1ccccc1CNCCc1c[nH]c2ccccc12 | 0.5 | i | -1.2 | 0.63 | -3 | · | -34 | -50 | -14
O=C(c1cc(-c2ccccc2)nc2ccccc12)N1CCC2(CC1)OCCO2 | 2.8 | i | -1.8 | 0.7 | -12 | 3 | -8 | -13 | 8.0
Cc1cc(OCc2ccc([N+](=O)[O-])cc2)c2c3c(c(=O)oc2c1)CCCC3 | 4.2 | i | -0.2 | 0.73 | 4 | · | -1 | 7 | -4.3
COc1ccc(-n2nnnc2C(C2CC2)N2CCC3(CC2)C(=O)NCN3c2ccccc2)cc1 (centres undefined) | · | i | 3.8 | · | · | · | 20 | 15 | 1.3
O=C1NC(=O)C(=Cc2ccc(-c3ccc(S(=O)(=O)N4CCOCC4)cc3)o2)C(=O)N1 | 0.0 | i | 2.4 | 0.65 | -2 | 92* | · | · | ·
O=c1[nH]c(=O)n(-c2cccc3ccccc23)c(O)c1/C=N/N1CCCCC1c1cccnc1 (centres undefined) | 6.4 | · | 33* | · | 3 | -26 | 12 | 12 | 3.1
CS(=O)(=O)c1ccc(C2=C(CNC(=O)c3ccc([N+](=O)[O-])cc3)[C@H]3CC[C@@H](C2)N3Cc2ccccc2)cc1 | · | i | 3.0 | · | · | · | -5 | 5 | -4.2
Fc1ccccc1CN1CCN(c2ccc(Cl)cc2)CC1 | 6.3 | i | 0.8 | 0.64 | 2 | 10 | -3 | 5 | -1.3
COC1=CC2[C@@H]3Cc4ccc(OC)c(O)c4[C@]2(CCN3C)CC1=O (some centres undefined) | -0.2 | i | -3.8 | 0.69 | -3 | · | 10 | 13 | 0.6
CC(N)Cc1c[nH]c2ccc(O)cc12 (centres undefined) | · | i | -0.6 | · | -5 | · | · | · | ·

Entries from the list above containing a furan ring, fused or not:
SMILES | UCH37 inh | FGF22 binding | HNF4A DNA FP | Ecoli growth | Beta2AR agonist | ALR H2O2 inh | rRNA inh HTS | rRNA inh HTS OD600 | rRNA inh HTS RFP
Cc1ccc(CN(Cc2ccccc2)C(=S)NCC(=O)N2CCC3(CC2)OCCO3)o1 | 4.7 | i | -2.4 | 0.71 | -6 | · | -21 | -17 | -2.7
CC(C)CCn1c(=O)c(C(=O)NCc2ccco2)c(O)c2ccccc21 | 0.3 | i | 4.1 | 0.71 | -8 | 5 | 33 | 16 | 5.6
O=C1NC(=O)C(=Cc2ccc(-c3ccc(S(=O)(=O)N4CCOCC4)cc3)o2)C(=O)N1 | 0.0 | i | 2.4 | 0.65 | -2 | 92* | · | · | ·

Four consecutive compounds out of the list so far, quoted:
SMILES | UCH37 inh | FGF22 binding | HNF4A DNA FP | Ecoli growth | Beta2AR agonist | ALR H2O2 inh | rRNA inh HTS | rRNA inh HTS OD600 | rRNA inh HTS RFP
O=C(c1cc(-c2ccccc2)nc2ccccc12)N1CCC2(CC1)OCCO2 | 2.8 | i | -1.8 | 0.7 | -12 | 3 | -8 | -13 | 8.0
Cc1cc(OCc2ccc([N+](=O)[O-])cc2)c2c3c(c(=O)oc2c1)CCCC3 | 4.2 | i | -0.2 | 0.73 | 4 | · | -1 | 7 | -4.3
COc1ccc(-n2nnnc2C(C2CC2)N2CCC3(CC2)C(=O)NCN3c2ccccc2)cc1 (centres undefined) | · | i | 3.8 | · | · | · | 20 | 15 | 1.3
O=C1NC(=O)C(=Cc2ccc(-c3ccc(S(=O)(=O)N4CCOCC4)cc3)o2)C(=O)N1 | 0.0 | i | 2.4 | 0.65 | -2 | 92* | · | · | ·
